V. cholerae motility – Vibrio cholerae motility inhibitors, OD read-out (AID 588778); inhibition, %; hits with a dose series show IC50 in µg/mL; Vibrio cholerae motility, OD read-out; higher % means a stronger effect; test concentration not given here; primary cut-off and reference of the scale not given here; strong numbers were not always called active; 10,000 tested, under 10 active; in the data active = confirmed in a dose series
V. cholerae motility viability – recorded beside V. cholerae motility, whose call it bears; inhibition, %; measured here: bacterial viability at 10 ug/mL;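 higher means fewer living bacteria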
* marks the source's active call; other numbers are inactive results.

molecule	V. cholerae motility	V. cholerae motility viability
CC(=O)NC(=S)Nc1cccc(C#N)c1	5%	5
Nc1nnc(SCC(=O)c2cccc([N+](=O)[O-])c2)s1	2%	7
CC(=O)c1c(C(C)=O)c(C)n(-c2ccc3ncccc3c2)c1C	9%	4
Clc1ccc(-c2csc(Cc3nc(-c4ccccc4)cs3)n2)cc1	-11%	1
O=C(Nc1ccc(Cl)cc1)Nc1cccs1	31%	9
CCN(CC)S(=O)(=O)c1cccc(C(=O)NC2=NCCS2)c1	6%	2
CC1(C(=O)NCc2ccc3c(c2)OCO3)COC(c2ccccc2)OC1 (configuration not stated)	0%	4
CC1=NNC(=O)C1CCc1ccncc1 (configuration not stated)	-44%	-1
O=C(NCCc1ccc(F)cc1)NC12CC3CC(CC(C3)C1)C2	24%	4
Cc1ccc(/C=C(/C#N)c2ccc(Cl)c(Cl)c2)o1	-11%	-4

The final 4 records of the part above come first, to join the parts:
molecule	V. cholerae motility	V. cholerae motility viability
CC1(C(=O)NCc2ccc3c(c2)OCO3)COC(c2ccccc2)OC1 (configuration not stated)	0%	4
CC1=NNC(=O)C1CCc1ccncc1 (configuration not stated)	-44%	-1
O=C(NCCc1ccc(F)cc1)NC12CC3CC(CC(C3)C1)C2	24%	4
Cc1ccc(/C=C(/C#N)c2ccc(Cl)c(Cl)c2)o1	-11%	-4
Cc1oc2ccc(OCc3ccc(F)cc3Cl)cc2c1C(=O)O	3%	26
COc1ccc(C(=O)CSc2nnc(SCc3ccc(F)cc3)s2)cc1	-16%	-8
O=C(c1ccco1)N1CCN(c2nc(-c3ccc(F)cc3)cs2)CC1	12%	6
O=C1CC(N2CCN(C/C=C/c3ccccc3)CC2)C(=O)N1Cc1cccs1 (configuration not stated)	10%	1
CNC(=S)Nc1ccc(I)cc1	9%	9
O=C(CSCc1ccc(Cl)c(Cl)c1)Nc1c[nH]c(=O)[nH]c1=O	7%	-3
FC(F)(F)c1ccc(N2CCc3ccccc3C2)nc1	-8%	-6
COC(=O)Cc1cnc(NC(=O)C(C)(C)Oc2ccc(Cl)cc2)s1	1%	2
Cn1nc([N+](=O)[O-])nc1OCc1nc2ccccc2n1C	0%	-3
O=C(OCc1ccc(S(=O)(=O)c2ccccc2)cc1)c1cccs1	6%	-3

Additional results:
molecule	V. cholerae motility	V. cholerae motility viability
O=C(NCc1ccc(Cl)c(Cl)c1)c1ccccc1Br	5%	-4
O=C(O)c1ccccc1-c1ccc(-c2nc3ccccc3s2)o1	19%	34
O=C(NCCNS(=O)(=O)c1ccccc1)N1CCOCC1	10%	31
CCOc1c(OC)cccc1C1Nc2ccccc2NC2=C1C(=O)C(C(=O)OC)C(C)C2 (configuration not stated)	0%	-1
O=C(CN1CCN(Cc2ccc3c(c2)OCO3)CC1)c1ccc(Cl)cc1	15%	3
CC(=O)Nc1ccc(OC(=O)N2CCCC2)cc1	-5%	1
O=C(Cn1c(C(F)(F)F)nc2ccccc21)c1cccc([N+](=O)[O-])c1	-3%	-8
O=C(Oc1cccc2cccnc12)c1ccccc1F	62%	20
Cc1ccc(S(=O)(=O)N2CCCC(C(=O)NCc3ccccn3)C2)cc1 (configuration not stated)	-1%	2
O=c1cc[nH]c2c(C(F)(F)F)cccc12	8%	3

The list goes on.
molecule	V. cholerae motility	V. cholerae motility viability
Cc1nn2c(CNc3ccccc3)nnc2c2ccccc12	-4%	5
CN(C)CCNCCOCCOc1ccccc1C#N	7%	36
CS(=O)(=O)N(CC(=O)Nc1ccc2c(c1)OCO2)C1CCCCC1	6%	-3
N#Cc1ccc(-c2ccc(OCC(N)=O)cc2)cc1	43%	12
O=C(NCCc1ccc(F)cc1)Nc1ccccc1Cl	20%	11
Cc1cc(NC(=O)Cc2c(F)cccc2Cl)no1	-4%	-6
CCc1nnc(NC(=O)CSc2nc3ccc(OC)cc3[nH]2)s1	14%	4
COc1ccc(CSc2nnc(SCc3ccc(Cl)c(Cl)c3)s2)cc1	-16%	-6
Cc1c(C(=O)c2ccccc2)c(=O)n(C)c(=O)n1C	-9%	1
O=c1nc(/C=C/c2ccc(-c3cc(Cl)cc(Cl)c3)o2)cc(C(F)(F)F)[nH]1	7%	-1

Other structures follow.
molecule	V. cholerae motility	V. cholerae motility viability
CC(=O)N(Cc1ccco1)CC1CCOC(C)(C)C1 (configuration not stated)	-14%	-8
O=C1CC(NCCC2=CCCCC2)C(=O)N1c1ccc(F)cc1 (configuration not stated)	19%	3
O=C(CC1SC2=NCCN2C1=O)Nc1cccc(C(F)(F)F)c1 (configuration not stated)	9%	32
NC(=S)Nn1c(=O)[nH]c2sc3c(c2c1=O)CCCC3	-2%	-2
CC(Oc1cccc(Cl)c1)C(=O)N1CCN(c2ccccc2F)CC1 (configuration not stated)	20%	9
CCOC(=O)/C(=C\C=C\c1ccccc1)NC(=O)c1ccccc1	7%	-2
S=C(Nc1ccc2c(c1)OCO2)Nn1cnnc1	8%	0
Cc1nn2c(nc1=O)SCC(c1ccccc1)=N2	9%	0
O=C(Oc1ccc(Br)cc1)c1ccc(N2CCOCC2)c([N+](=O)[O-])c1	-2%	-3
CC1(C)C(=O)OC(c2ccco2)C(C)(C)C1=O (configuration not stated)	-2%	-3

(more compounds)
molecule	V. cholerae motility	V. cholerae motility viability
O=C(O)c1c(F)c(F)c(F)c(F)c1-c1ccc(Cl)cc1	9%	8
Cc1cc(Nc2ccc(C(=O)O)cc2)c2cccc(Cl)c2n1	7%	0
COc1ccc(C(=O)Nc2ccc(-c3nnc(SCc4ccccc4)o3)cc2)cc1	-13%	-6
CS(=O)(=O)N1CCC(C(=O)NCCC2=CCCCC2)CC1	0%	-5
O=C(Nc1ccccc1C(F)(F)F)N1CCN(c2ncccn2)CC1	16%	8
S=C(Nc1ccccc1Cl)c1nc2ccccc2s1	9%	-7
COC(=O)c1sc2c(Cl)c(OC)ccc2c1Cl	12%	3
COc1cc(C2NC(=O)NC(C)=C2C(=O)c2ccccc2)cc(Br)c1O (configuration not stated)	-16%	-10
Cc1ccccc1CSc1nnc(C)c(=O)[nH]1	8%	1
O=C(Nc1ccccc1O)c1ccc(C(=O)c2ccccc2)o1	15%	-5

Quoted from the listing:
Cc1cc(Nc2ccc(C(=O)O)cc2)c2cccc(Cl)c2n1 in V. cholerae motility is entered as 7%
CS(=O)(=O)N1CCC(C(=O)NCCC2=CCCCC2)CC1 in V. cholerae motility viability is entered as -5
O=C(O)c1c(F)c(F)c(F)c(F)c1-c1ccc(Cl)cc1 in V. cholerae motility is entered as 9%
O=C(Nc1ccccc1O)c1ccc(C(=O)c2ccccc2)o1 in V. cholerae motility viability is entered as -5
COc1cc(C2NC(=O)NC(C)=C2C(=O)c2ccccc2)cc(Br)c1O (configuration not stated) in V. cholerae motility is entered as -16%

(further entries)
molecule	V. cholerae motility	V. cholerae motility viability
Cc1cc(C)c2c3c(sc2n1)C1(CCCCC1)C(C#N)=C(N)O3	-1%	1
CCN(CC)C(=O)CSc1nc2nc(C)cc(C)c2c(=O)[nH]1	0%	4
COc1ccccc1CC1CC(=O)N(c2ccccc2)C1=O (configuration not stated)	14%	29
CC(C)(C)Sc1ccc(C(=O)O)s1	-8%	-7
O=C(Cn1nc(C(F)F)cc1C1CC1)NCCC1=CCCCC1	3%	0
C=CCc1cccc(C)c1OCCCN1CCCC1	29%	4
Cc1cc(=O)cc(C)n1-c1ccc(-n2c(C)cc(=O)cc2C)cc1	-6%	2
O=C(c1ccccc1)N1N=C(C(F)(F)F)CC1(O)c1ccccc1 (configuration not stated)	-21%	-7
CCOC(=O)C(C#N)C(=O)c1ccc(NC(=O)c2ccccc2)cc1 (configuration not stated)	-17%	-10
c1ccc(Cn2c(Sc3nnnn3-c3ccccc3)nnc2-c2ccccc2)cc1	-7%	-2

Following part.
Below each SMILES – V. cholerae motility	V. cholerae motility viability
- O=C(CSc1nnc(SCc2cccc3ccccc23)s1)Nc1ccc2cn[nH]c2c1
  7%	2
- COc1cc(OC)c(C(=O)N2CCCc3ccccc32)cc1OC
  9%	-6
- C=CCOc1cc(Cl)c(C=O)cc1OC
  -16%	3
- Cc1cc(C(F)(F)F)nc2sc(C(=O)c3cccc(Cl)c3)c(N)c12
  7%	35
- Clc1cccc(CCNCc2cccnc2)c1
  8%	32
- CS(=O)(=O)c1ccc2nc(NC(=O)c3sc4ccccc4c3Cl)sc2c1
  -7%	28
- Cc1noc(C)c1CSc1nc2[nH]ncc2c(=O)n1-c1ccccc1
  -3%	-3
- O=Cc1cccn1-c1cccc(Br)c1
  9%	-1
- CN(C)c1nc(=S)nc(NCc2ccccc2)[nH]1
  0%	0
- CCc1cc2c(=O)c(-c3nc4ccccc4[nH]3)coc2c(CN2CCCC(C)C2)c1O (configuration not stated)
  -4%	-1
- CCCCc1ccc(S(=O)(=O)NNC(=S)Nc2ccc(F)cc2F)cc1
  15%	3
- CN(C)c1nc(N(C)C)nc(N(C#N)CCOc2ccccc2)n1
  -3%	-2
- O=C(CSc1nnc(-c2cccnc2)n1-c1ccccc1)c1c[nH]c2ccccc12
  -6%	0
- CCn1cc(C(=O)OCc2cccc(Br)c2)c(=O)c2ccc(C)nc21
  2%	3
- Cc1cc(C)c(NC(=O)Cn2c3ccccc3c3nc4ccccc4nc32)c(C)c1
  -12%	-11
- Cn1nc(C(=O)NCC2CCCO2)c2ccccc2c1=O (configuration not stated)
  -7%	-6
- COC(=O)c1ccccc1NC(=O)C(=O)NCC1CCCO1 (configuration not stated)
  15%	-3
- COc1cc(NC(=O)c2cc3ncc(Br)cn3n2)c(OC)cc1Cl
  8%	7
- CN(C)c1ccc(/C=C/C=N/NS(=O)(=O)c2ccc(C(C)(C)C)cc2)cc1
  -8%	-5
- Cc1ccc2c(Cl)c(C(=O)NC3=NCCS3)sc2c1
  11%	24
- O=C1CN(c2ccccc2C(F)(F)F)C(=O)CN1c1ccccc1C(F)(F)F
  9%	0
- COc1ccccc1N1CCN(c2ccc(C(F)(F)F)cn2)CC1
  2%	3
- Cn1c(=O)n(C)c2cc([N+](=O)[O-])c(N3CCN(CCO)CC3)cc21
  18%	32
- COc1ccc(-c2nc3cc(C(C)C)ccc3o2)cc1NC(=O)c1cc(Cl)ccc1OC
  5%	1
- Cc1cc(C)nc(SC2=CS(=O)(=O)c3ccccc32)n1
  17%	4
- O=C1CC(c2cccs2)Cc2nc(NCc3ccccc3)ncc21 (configuration not stated)
  1%	-1
- COc1cc(-c2c(C#N)c(N)nc(SCc3ccc(Cl)c(Cl)c3)c2C#N)cc(OC)c1OC
  21%	4
- COC(=O)N1N=C(CC(C)C)CC1(O)C(F)(F)F (configuration not stated)
  -15%	-14
- O=C(COc1ccccc1[N+](=O)[O-])N1c2ccccc2Sc2ccccc21
  -17%	-10
- CCCc1cn(S(=O)(=O)c2ccc(OC)cc2OC)nc1N
  -5%	-4

More compounds follow:
Below each SMILES – V. cholerae motility	V. cholerae motility viability
- Cc1ccc(SCCNCCN2CCOCC2)cc1
  1%	1
- Clc1ccc(N2CCN(N=Cc3cccnc3)CC2)cc1
  4%	-2
- O=C(Nc1ccc2oc(=O)ccc2c1)c1ccccc1I
  -31%	-19
- COC(=O)C(C)Oc1ccc2c(=O)c(-c3ccc(Br)cc3)c(C)oc2c1 (configuration not stated)
  14%	3
- Cn1c(SCC(=O)N2c3ccccc3SC3C=CC=CC32)nnc1-c1ccccc1 (configuration not stated)
  -4%	-8
- Cc1cc(Br)c(NC(=O)CSc2nccc(=O)[nH]2)cc1C
  -5%	-5
- COc1cccc(-c2cc(C(F)(F)F)c3c(n2)oc2onc(N)c23)c1
  -18%	-4
- COc1cccc2cc(C(=O)Nc3scc(-c4ccc(F)cc4)c3C(=O)OC(C)C)c(=O)oc12
  -23%	-8
- COc1ccc(CC(=O)Nc2cc(C(F)(F)F)ccc2Cl)cc1
  59%	8
- Cc1cc(NC(=O)C2CC(c3cccc(Br)c3)=NO2)no1 (configuration not stated)
  -14%	-8
- CN(Cc1ccccc1)C(=S)NC(=O)Cc1cccc2ccccc12
  4%	-3
- CNC(=O)C(=O)Nc1cc(C)cc(C)c1
  -8%	-4
- Cc1cc(=O)n2[nH]c(COc3ccccc3)nc2n1
  -12%	-8
- Cn1c(=O)[nH]c(=O)c2c1nc(N1CCOCC1)n2CCCSc1nc2ccccc2s1
  -10%	-9
- O=C(Nc1nccs1)c1cccc(NC(=O)C2CC=CCC2C(=O)O)c1 (configuration not stated)
  -1%	-8
- O=C1CCN(S(=O)(=O)c2ccccc2)C2CCCCC12 (configuration not stated)
  -7%	-7
- Cc1ccc(OCc2cccc3nsnc23)cc1[N+](=O)[O-]
  6%	11
- N#Cc1c(SCC(=O)Nc2nc3ccccc3s2)nsc1SCC(=O)Nc1nc2ccccc2s1
  -7%	2
- CCOC(=O)CCCSc1nc2sc(C(=O)O)c(C)c2c(=O)[nH]1
  -4%	1
- COc1cccc(C2Nc3ccc([N+](=O)[O-])cc3C3c4ccccc4CC23)c1OC (configuration not stated)
  -1%	-11
- O=[N+]([O-])c1ccc(S(=O)(=O)Nc2ccc(-c3nnc(-c4ccccc4)o3)cc2)cc1
  3%	1
- FC(F)(F)c1ccccc1NC(=S)NCc1ccc2c(c1)OCO2
  4%	-1
- O=C(CSc1ccccn1)Nc1nc(-c2ccccc2)c(-c2ccccc2)o1
  -5%	-9
- CC(Oc1ccc(Cl)cc1Cl)C(=O)O/N=C(\N)c1cccnc1 (configuration not stated)
  -6%	-3
- CC1(C)CC2CC(C)(CN2c2ncnc(N)c2[N+](=O)[O-])C1 (configuration not stated)
  -10%	-6
- Nc1nnc(SC/C=C/CSc2nnc(N)s2)s1
  -16%	-3
- Cc1nnc(SCCN2C(=O)c3ccccc3C2=O)[nH]c1=O
  12%	0

By substructure: the entries above with a tert-butyl group.
Below each SMILES – V. cholerae motility	V. cholerae motility viability
- CC(C)(C)Sc1ccc(C(=O)O)s1
  -8%	-7
- CN(C)c1ccc(/C=C/C=N/NS(=O)(=O)c2ccc(C(C)(C)C)cc2)cc1
  -8%	-5

High-throughput results as filed in PubChem BioAssay.

Some of the compounds tested; count on the stated rates, not on these rows.
